PKD1 inh: PKD1 (human) kinase inhibition | 200,000 tested, 0.056% active | PKD1 kinase fluorescence polarization assay | AID 797 | inhibition, %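 (about 10 µM by stock and volumes)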;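 active = inhibition of 50% or more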;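 also: controls were vehicle for no effect and a reference inhibitor for full effect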
Target sequence (Q15139 whole entry, looked up): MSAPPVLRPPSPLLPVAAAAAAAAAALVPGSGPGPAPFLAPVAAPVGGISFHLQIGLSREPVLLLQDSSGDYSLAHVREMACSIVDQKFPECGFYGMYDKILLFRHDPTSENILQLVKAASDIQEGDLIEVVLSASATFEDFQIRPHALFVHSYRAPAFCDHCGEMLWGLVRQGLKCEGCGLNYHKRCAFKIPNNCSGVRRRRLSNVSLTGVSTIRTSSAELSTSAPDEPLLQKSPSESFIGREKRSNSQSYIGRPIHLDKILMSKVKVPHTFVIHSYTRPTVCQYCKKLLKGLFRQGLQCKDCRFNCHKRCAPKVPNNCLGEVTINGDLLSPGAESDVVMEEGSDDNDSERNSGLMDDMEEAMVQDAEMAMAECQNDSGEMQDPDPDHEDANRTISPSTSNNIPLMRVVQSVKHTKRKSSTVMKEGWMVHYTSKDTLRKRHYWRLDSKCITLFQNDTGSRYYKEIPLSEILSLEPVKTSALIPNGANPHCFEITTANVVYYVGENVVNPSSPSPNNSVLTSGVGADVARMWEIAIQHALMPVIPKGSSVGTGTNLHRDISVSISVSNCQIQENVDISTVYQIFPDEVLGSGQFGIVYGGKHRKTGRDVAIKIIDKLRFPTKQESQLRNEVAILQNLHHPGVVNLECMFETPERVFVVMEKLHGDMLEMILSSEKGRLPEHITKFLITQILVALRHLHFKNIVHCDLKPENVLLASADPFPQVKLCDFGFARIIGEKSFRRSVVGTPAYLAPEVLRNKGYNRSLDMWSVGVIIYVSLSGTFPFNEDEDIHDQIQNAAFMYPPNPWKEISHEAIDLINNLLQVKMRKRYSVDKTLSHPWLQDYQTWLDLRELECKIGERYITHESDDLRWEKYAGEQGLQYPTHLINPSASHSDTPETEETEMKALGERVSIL
HSV replic up: HSV replication enhancement; HSV replication augmentation in cells, fold increase; maximum fold increase; 220,000 tested, 0.005% active;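 active = peak rise of 1.5-fold or more in the series; inconclusive = self-fluorescent or not available for retest; tested in PC3 cells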;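 also: first round at 10 µM; read as green reporter fluorescence; hits show the peak of a series up to 25 µM; 1 = signal of infected wells without compound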
RGS16-Gao HTS: regulators of human RGS16-Galphao interaction. binding response (% of control), % at 10 µM. 220,000 tested, 0.38% active. bead-based flow cytometry RGS16-Galphao binding, fluorescence; actives lie on both sides. O15492+P09471;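 active = below 25% or above 175%, edge rows of some plates excepted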;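 also: Galphao activated by GDP with aluminum fluoride before binding; 100% = wells without compound and 0% = beads without RGS; some results beyond the cut were filed as inactive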
GALR2 agonist: activates the human galanin receptor 2. O43603. GALR2-expressing cells, agonist activation read-out. activation, %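 (tested at 5 µM)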. 140,000 tested, 0.48% active;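 active = above mean plus 3 SD of all compounds, about 5% in these data, not always enough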;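 also: 0% = vehicle buffer wells and 100% = reference agonist at full effect; tested in CHO reporter cells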
INS promoter inh: TRM-6 insulin promoter activity inhibition; TRM-6 cells (human fetal islet line), insulin promoter-eGFP reporter, imaging; reporter expression induced with tamoxifen; inhibition, % at 2 µM; 130,000 tested, 0.9% active; AID 1273;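 active = inhibition above the mean plus 3 SD, with well images judged a real hit on visual review, cut at about 60% in these data, passing the limit was not always enough; inconclusive = inhibition over the cutoff but images rejected on review; inactive = inhibition not above the cutoff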
INS promoter inh cell count: second read-out of INS promoter inh, no call of its own (marks repeat the call); normalized cell count, %; measured here: cell count, toxicity; reference of the scale not given here;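 cells exposed to compound for 48 h; stained nuclei by imaging scaled within each plate; lower means fewer cells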
HSV replic up primary fold: second read-out of HSV replic up, no call of its own (marks repeat the call); fold increase; compound at 10 µM; measured here: primary screen fold increase 10 uM; tested in PC3 cells;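 GFP signal in the first replicate; 1 = infected wells without compound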
* marks the source's active call; other numbers are inactive results; i = inactive; ? = inconclusive; / = not tested or not shown.

Every second line gives: PKD1 inh, HSV replic up, HSV replic up primary fold, RGS16-Gao HTS, GALR2 agonist, INS promoter inh, INS promoter inh cell count
> Cc1nn(C(=O)c2cccs2)c(N)c1-c1ccccc1
  -6, i, 0.82, 104, -1.7, /, /
> Cc1ccc(C(=O)COC(=O)CCC(=O)Nc2ccccc2Cl)cc1[N+](=O)[O-]
  2, i, 1.1, 127, -1.5, 25, 77
> COc1ccccc1CC(NC(C)=O)C(=O)NC1CCN(c2nnnn2-c2ccccc2)CC1 (centres undefined)
  -27, i, 1.1, 102, -1.2, -3, 124
> OCCOc1nnnn1-c1ccccc1
  -7, i, 0.95, 101, -2.2, 24, 62
> Cc1ccc(O)c(C2=NOC(O)(C(F)(F)C(F)F)C2)c1 (centres undefined)
  -3, i, 0.78, 113, -3.8, /, /
> C=CCOC(=O)C1=C[C@H](C2CCCCC2)[C@@H](CCCO)[C@H](OCC)O1
  6, i, 0.89, 99, /, /, /
> CC(C)N(Cc1ccccc1)C(=S)Nc1ccc(OC(F)F)cc1
  -11, i, 0.99, 38, 1.7, -7, 69
> Cc1cc(C(=O)N/N=C/c2ccc3c(c2)OCO3)c(C)o1
  -3, i, 1, 106, /, /, /
> Cc1ccc2cccc(OCCOCCOc3ccccc3Br)c2n1
  -6, i, 0.78, 102, -1.4, -10, 84
> Cc1c(N2C(=O)c3ccccc3C2(O)c2ccccc2)c(=O)n(-c2ccccc2)n1C (centres undefined)
  /, i, 0.96, 104, /, /, /
> CC(C)OC(=O)c1ccc(Cn2nnc3ccccc3c2=O)cc1
  -2, i, 0.86, 78, -1.5, 59, 183
> COc1ccc(Oc2ccc(/C=C/C(=O)c3cccc(OC)c3)cc2[N+](=O)[O-])cc1
  -7, i, 0.5, 105, -2.4, 43, 129
> CC1(C)CC(=O)C(C=NCCN2CCN(C(=O)CCl)CC2)=C(O)C1
  /, i, 1.2, 101, /, /, /
> Cc1cc(N)n(-c2ccc(C)c(C)c2)n1
  1, i, 1.2, 95, /, /, /
> Cc1cc(C)c2c(c1)cc(C)c1nnc(SCC(=O)N3CCCc4ccccc43)n12
  -13, i, 0.95, 46, 0.1, /, /
> CCc1nccn1CCC(=O)N1CCc2c([nH]c3ccccc23)C1CC(C)C (centres undefined)
  /, i, 0.92, 101, /, /, /
> CC(CN1CCN(Cc2ccccc2)CC1)OC(=O)c1ccco1 (centres undefined)
  /, i, 0.9, 103, /, /, /
> CC(=O)c1cc2c(C)cc(=O)oc2cc1O
  -2, i, 0.83, 100, -1.6, -48, 111
> O=C(OCc1nc(-c2ccccc2)oc1COC(=O)c1ccco1)c1ccco1
  -8, i, 1, 96, -1.6, /, /
> Cc1ccc(-c2nc3ccccc3[nH]c2=O)cc1
  /, i, 0.91, 105, /, /, /
> CC(C)OCCCNc1nc2c([nH]1)c(=O)n(C)c(=O)n2C
  4, i, 1.1, 95, -1.0, /, /
> N#Cc1c(NCCO)ccc([N+](=O)[O-])c1NCCO
  /, i, 0.95, 101, /, /, /
> COc1ccc(C(=O)CSc2ccc(-c3ccco3)nn2)cc1
  2, i, 1, 99, 0.4, /, /
> O=C(c1cn(CC(=O)N2CCCC2)c2ccccc12)C1CCCCC1
  -6, i, 0.88, 100, 0.0, -67, 127
> Cn1c(SCC(=O)N2CCN(S(=O)(=O)c3ccccc3)CC2)nc2ccccc21
  -6, i, 0.95, 104, -1.6, 23, 61
> CCOC(=O)C(CC)n1cnc2c(cnn2-c2ccc(Cl)cc2)c1=O (centres undefined)
  -13, i, 0.98, 102, -0.3, /, /
> O=C(CCCCCN1C(=O)CCC1=O)Nc1ncn[nH]1
  -7, i, 0.99, 111, 0.7, 0, 144
> COc1ccc(/C=C/C(=O)N[C@@H](C)C(=O)O)cc1
  -6, i, 1.1, 121, -0.8, -7, 45
> Cc1cccn2c(=O)c(C=Nc3ccccc3)c(NCCO)nc12
  -5, i, 0.92, 92, -2.2, -43, 166
> Nc1ccc(-n2c(N)c(C(=O)NCc3ccc4c(c3)OCO4)c3nc4ccccc4nc32)cc1
  -8, ?, /, /, 5.5, -219, 36
> COc1ccc2[nH]c3c(NCCN4CCCCC4)ncnc3c2c1
  -15, i, 1.1, 98, 0.8, 81*, 40*
> COc1ccccc1N1CCN(C(=O)CN(c2cc(C)cc(C)c2)S(C)(=O)=O)CC1
  -13, i, 1.1, 91, -0.2, -70, 42
> COc1ccc(-n2c(Cc3cccn3C)nnc2SCC(=O)Nc2ccccc2C)cc1
  20, i, 1.2, 111, -2.3, /, /
> CC12CCC(C(=O)NCCN3CCCCC3)(CC1=O)C2(C)C (centres undefined)
  -2, i, 0.83, 98, -2.9, 32, 131
> Oc1c(Cl)cc(Cl)cc1C=Nc1ccc(Br)cc1
  -7, i, 1, 110, 0.6, -16, 71
> CCOC(=O)N1CCN(CC(=O)Nc2ccc([N+](=O)[O-])cc2C(=O)Nc2ccccc2F)CC1
  -14, i, 0.94, 135, -0.4, 30, 63
> Cc1ccc(OCn2c(=O)sc3ccccc32)cc1
  -1, i, 0.84, 105, -0.5, -437, 47
> CC(C)Oc1ccc(C(=O)NNC(=O)c2ccccc2C(=O)O)cc1
  -1, i, 0.99, 98, 1.0, /, /
> CC(=O)Cn1ncc(N2CCCCC2)c(Cl)c1=O
  -7, i, 1, 99, /, /, /
> Cn1nc(C(C)(C)C)c(NC(=O)c2ccc(F)cc2)c1C(C)(C)C
  /, i, 1, 104, /, /, /

Grouped by structure, the compounds so far containing bromine (two)
Every second line gives: PKD1 inh, HSV replic up, HSV replic up primary fold, RGS16-Gao HTS, GALR2 agonist, INS promoter inh, INS promoter inh cell count
> Cc1ccc2cccc(OCCOCCOc3ccccc3Br)c2n1
  -6, i, 0.78, 102, -1.4, -10, 84
> Oc1c(Cl)cc(Cl)cc1C=Nc1ccc(Br)cc1
  -7, i, 1, 110, 0.6, -16, 71

A draw from above in order of count of non-hydrogen atoms, lowest first.
Every second line gives: PKD1 inh, HSV replic up, HSV replic up primary fold, RGS16-Gao HTS, GALR2 agonist, INS promoter inh, INS promoter inh cell count
> CC12CCC(C(=O)NCCN3CCCCC3)(CC1=O)C2(C)C (centres undefined)
  -2, i, 0.83, 98, -2.9, 32, 131
> Cn1nc(C(C)(C)C)c(NC(=O)c2ccc(F)cc2)c1C(C)(C)C
  /, i, 1, 104, /, /, /
> Nc1ccc(-n2c(N)c(C(=O)NCc3ccc4c(c3)OCO4)c3nc4ccccc4nc32)cc1
  -8, ?, /, /, 5.5, -219, 36

Continuation.
Every second line gives: PKD1 inh, HSV replic up, HSV replic up primary fold, RGS16-Gao HTS, GALR2 agonist, INS promoter inh, INS promoter inh cell count
> CCC(C)c1ccc(NC(=S)NCc2ccccn2)cc1 (centres undefined)
  -3, i, 1, 98, /, 42, 132
> C=CCn1c(SC(CCO)C(=O)NCc2ccco2)nc2sc3c(c2c1=O)CCC3 (centres undefined)
  9, i, 0.86, 107, -1.0, /, /
> COc1cc(/C=N/N=C2/NC(=O)C(Cc3ccccc3)S2)ccc1O (centres undefined)
  -4, i, 0.88, 111, /, 36, 59
> CCSC1=N/C(=C\c2ccc(-c3ccccc3[N+](=O)[O-])o2)C(=O)S1
  -8, i, 1.1, 102, -1.3, 26, 78
> CC(C)N(C(=O)Cn1c(-c2ccccc2Cl)nc2ccccc21)c1ccccc1
  -3, i, 0.97, 41, -0.7, -44, 93
> Cc1c(NC(=O)OC(C)C)sc(=S)n1C
  -4, i, 0.88, 107, -1.8, -8, 150
> CC1=CC(=Nc2c(C)n(C)n(-c3ccccc3)c2=O)C=C(C)C1=O
  2, i, 0.99, 102, -1.8, /, /
> CC(/C=N/N1CCN(c2ccccc2)CC1)=C\c1ccccc1
  -11, i, 0.88, 99, -1.2, /, /
> CC(NC(=O)CSc1nnc(-c2cccnc2)n1N)c1ccccc1 (centres undefined)
  -2, i, 1.1, 96, /, 26, 98
> Cc1ccc(CNC(=O)c2ccc(CN3CCOCC3)cc2)cc1
  -15, i, 0.8, 91, -1.8, /, /
> CCC1CCC(NC2CCCCNC2=O)CC1 (centres undefined)
  -7, i, 0.89, 104, -0.3, 45, 158
> Cc1nn(CCCC(=O)Nc2cc(Oc3ccccc3)cc([N+](=O)[O-])c2)c(C)c1[N+](=O)[O-]
  -6, i, 0.96, 102, -1.0, /, /
> Cc1cc(C)c(OCC(=O)Nc2ccccn2)c([N+](=O)[O-])c1
  7, i, 0.95, 110, -0.1, 46, 142
> CCOC(=O)c1c(NC(N)=O)nc2n1CCC2
  -2, i, 0.97, 102, /, 14, 146
> Cc1cccc(NC(=O)c2ccc(NCC3CCCO3)c([N+](=O)[O-])c2)n1 (centres undefined)
  -3, i, 1, 96, /, /, /
> Nc1ccc2nc(-c3ccc(N)c(Cl)c3)[nH]c2c1
  -11, i, 0.86, 102, 1.4, 39, 121
> COc1ccc(CCN2CC34C=CC(O3)C(C(=O)NCc3ccccc3)C4C2=O)cc1OC (centres undefined)
  -2, i, 0.95, 101, -1.6, -107, 93
> Cc1ccc(C2=NCN(c3ccc(C(=O)O)cc3)C(=S)N2)cc1
  -1, i, 0.94, 100, /, -25, 106
> Cc1ccc(N2NC(C)(c3cccs3)NC2=S)cc1 (centres undefined)
  -5, i, 0.92, 92, -0.6, 0, 156
> COc1cc(/C=N/Nc2ccc3ccccc3c2)ccc1OC(=O)c1ccco1
  6, i, 1, 99, -0.7, /, /
> CCCn1c(SCC(=O)NCCc2ccc(Cl)cc2Cl)n[nH]c1=O
  -1, i, 0.86, 102, -1.8, /, /
> Cc1ccc(O)c(C(=O)/C=C/c2ccc3c(c2)OCCCO3)c1
  2, i, 0.83, 174, -1.5, 21, 55
> CCCCCc1c(O)c2ccccc2[nH]c1=O
  -7, i, 0.96, 102, -0.6, 41, 35
> C[C@@H]1NC(=O)c2cc([N+](=O)[O-])cc(I)c2NCCCC[C@@H](C(N)=O)NC(=O)[C@H](CC(N)=O)NC1=O
  2, i, 0.84, 196, -2.2, -45, 49
> O=C(Nc1nc(-c2ccccn2)cs1)c1cc2ccccc2o1
  -2, i, 0.95, 104, /, -14, 54
> Cc1ccc(CNC(=O)C2CC(=O)N(c3ccc(OCC(=O)N4CCCC4)cc3)C2)cc1 (centres undefined)
  0, i, 1, 89, -1.7, 38, 99
> Cc1nc2c(-c3ccc(F)cc3)c(C)nn2c(C)c1CCC(=O)Nc1ccccc1
  /, i, 0.91, 99, /, /, /
> Clc1ccc(N/N=C/c2cccs2)nn1
  0, /, /, 89, /, 36, 127
> Cc1ccc(S(=O)(=O)NCC(=O)OCC(=O)NC(=O)c2cccn2C)cc1
  3, i, 0.91, 103, -1.3, 0, 139
> Cc1ccc(OCC(=O)Nc2cccc(-c3nnc(-c4ccccc4)o3)c2)cc1
  -21, /, /, 124, -1.4, /, /
> Cc1noc(C)c1COC(=O)C1COc2ccccc2O1 (centres undefined)
  -14, i, 0.67, 105, -3.3, /, /
> Cc1[nH]c(=S)c(C#N)c(-c2ccco2)c1C(=O)N(C)C
  -3, i, 1.2, 90, /, /, /
> CCOC(=O)/C(C#N)=C\c1c(C)cc(C)c(COC(C)=O)c1C
  6, i, 0.88, 109, -1.8, 6, 127
> O=c1oc(/C=C/c2ccccc2)nc2sc3c(c12)CCC3
  -4, i, 1.2, 103, 0.0, -15, 133
> Cc1nc([N+](=O)[O-])c(Br)n1Cc1ccccc1
  /, i, 0.8, 98, /, /, /
> Cn1c(CCN2CCOCC2)nc2cc(NC(=O)c3cccs3)ccc21
  1, i, 0.9, 96, /, 8, 116
> CC(C(=O)NCC1CCCCC1)N1CCc2ccccc2C1 (centres undefined)
  -3, /, /, 104, /, -36, 66
> CC(C)c1nnc(NC(=O)c2cccs2)s1
  16, i, 0.72, 111, -1.1, /, /
> Cn1cnnc1SCC(=O)Nc1ccc(S(=O)(=O)N2CCCC2)cc1
  11, i, 0.96, 96, -1.8, 10, 92
> N/C(Cc1ccc(Cl)cc1Cl)=N\OC(=O)c1cccs1
  10, i, 0.91, 97, -0.1, 16, 78
> S=C(NCCc1ccccc1)NC1CCC(NC(=S)NCCc2ccccc2)CC1 (centres undefined)
  -1, i, 0.87, 108, /, 5, 110

Source: PubChem BioAssay
